# Bfl-1 A1 inh: inhibitors of the anti-apoptotic protein A1, read as caspase activation. MEF A1-2A-BIM cells, Caspase-Glo 3/7 luminescence, 3 h; percent of clofoctol response, vehicle zero. caspase activation, % (test concentration not listed). 0.066% of 330,000 active;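 active = over half of replicate activation scores above 10%, or exactly half above 10 with the replicate mean above 10; inconclusive = replicate mean below 10 yet half the replicates above 10; inactive = over half of replicates below 10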;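 also: wells of about 30 µL received 50 nL stock; many hits fall short of the cut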
# RanGTP-Imp inh: inhibitors of RanGTP-importin-beta interaction, primary screen, biochemical, FRET, CFP-Ran, YFP-importin-beta, homogeneous; cell-free CFP-Ran/YFP-importin-beta FRET ratio; inhibition, % (test concentration not listed); 1.1% of 300,000 active;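 active = most replicates above 15%; inconclusive = exactly half above 15%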;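 also: 0% = DMSO wells and 100% = Ran loaded with GDP instead of GTP; wells of about 40 µL received 100 nL stock; the first replicate is given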
# Vif A3G: inhibitors of Vif binding to APOBEC3G peptide, primary screen, biochemical, TR-FRET, GST-Vif 1-94, biotin-A3G peptide, dose response retest (AID 1117319); TR-FRET GST-Vif / biotin-A3G peptide binding; higher % means a stronger effect; test concentration not given here; strong numbers were not always called active; one-dose inhibition, %; IC50 in µM for titrated hits; 0.57% of 260,000 active;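 active = above the screen mean plus three standard deviations and confirmed in dose response; inconclusive = results disagree or hit not tested in dose response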;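 also: Vif residues 1-94 fused to GST binding biotinylated APOBEC3G peptide 110-148; 0% = full assay without inhibitor and 100% = GST in place of GST-Vif; retest series ran down from 100 µM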
# Calb FLC: C. albicans growth modulation with fluconazole; 0.57% of 300,000 active; C. albicans CaCi-2 (fluconazole-resistant clinical isolate) + fluconazole, Alamar Blue growth, 48 h; AID 1979; growth inhibition, % (test concentration not listed);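 active = most replicates above 75%; inconclusive = exactly half above 75%; inactive = most below 75%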;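 also: all wells also contain fluconazole at 8 µg/ml as a sub-toxic cotreatment; 0% = median of DMSO wells and 100% = median of geldanamycin control wells; wells of about 8 µL received 7.5 nL stock; the first replicate is given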
# Ecoli rRNA inh: inhibits bacterial ribosomal RNA function over humanized ribosomes; GFP signal change (wild-type ribosome), % (concentration not given with the values); E. coli WT GFP vs humanized-ribosome RFP mutants, fluorescence, 24 h; active compounds read low; DMSO median 0, no signal -100; 1.6% of 350,000 active;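 active = significant combined selectivity score with lowered wild-type GFP, culture density cut under 30%, mutant RFP and density less affected; inactive = any of these conditions unmet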; also: one replicate is shown; some compounds called inactive have numbers as strong as hits
# Beta cell apopt: beta cell apoptosis inhibition; INS-1E cytokine-induced death, ATP luminescence, 48 h; percent of positive-control rescue, neutral wells zero; protection from apoptosis, % (no concentration beside the values); 0.8% of 300,000 active; AID 435005;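 active = all replicates at 75% or more, or half of them and the mean; inconclusive = half reach 75% but not the mean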;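 also: 0% = cytokine-treated negative control wells and 100% = positive control rescue; higher means more ATP so stronger rescue from cytokine killing; wells of about 40 µL received 100 nL stock; the first replicate is given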
# T cruzi repl: blocks replication of Trypanosoma cruzi. AID 1885. inhibition, % (concentration not given with the values). T. cruzi beta-gal in NIH3T3, luminescence, 90 h. 1.4% of 300,000 active;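 active = mean inhibition across valid replicates above about 55%, limit read from the data; inconclusive = mean below that limit but half or more replicates reach it; inactive = mean below it, under half of replicates reach it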;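 also: signal also drops with host cell toxicity which is not excluded here; 0% = plate median of DMSO wells and 100% = zero luminescence signal; higher percent means less beta-gal luminescence so fewer parasites; stock transfer was 50 nL into about 50 µL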
# MLL AF4-AF9 inh: blocks AF4 peptide binding to human AF9. AlphaScreen, biotin-AF4 peptide binding to FLAG-AF9. P42568. 0.47% of 350,000 active. AID 651704. inhibition, % at 10 µM;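 active = every replicate reaching a set inhibition limit, whatever the replicate mean, cut at about 25% in these data; inconclusive = mean inhibition reaches that limit but some replicates miss it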;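 also: 0% = plate neutral control median and 100% = total signal loss; the record names both 10 and 1 µM as test concentration; the first replicate is given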
# Target sequence (P42568 whole entry, looked up): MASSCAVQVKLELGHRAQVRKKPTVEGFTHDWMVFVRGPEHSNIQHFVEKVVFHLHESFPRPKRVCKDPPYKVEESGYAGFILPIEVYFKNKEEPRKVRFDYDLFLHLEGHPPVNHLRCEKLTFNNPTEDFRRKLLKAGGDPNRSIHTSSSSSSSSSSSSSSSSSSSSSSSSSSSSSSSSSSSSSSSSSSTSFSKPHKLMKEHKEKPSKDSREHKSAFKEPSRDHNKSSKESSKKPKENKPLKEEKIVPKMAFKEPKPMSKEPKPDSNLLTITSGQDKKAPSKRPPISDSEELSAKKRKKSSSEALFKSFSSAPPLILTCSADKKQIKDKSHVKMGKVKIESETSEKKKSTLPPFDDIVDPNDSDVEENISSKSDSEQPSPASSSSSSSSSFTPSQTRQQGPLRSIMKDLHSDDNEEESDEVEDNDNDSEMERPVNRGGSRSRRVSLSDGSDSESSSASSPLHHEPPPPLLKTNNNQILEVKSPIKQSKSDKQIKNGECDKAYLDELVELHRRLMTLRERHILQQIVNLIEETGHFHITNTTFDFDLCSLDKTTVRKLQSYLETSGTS
# Ecoli rRNA inh OD600: also measured in Ecoli rRNA inh; calls as there; OD600 change, %; measured here: OD600 growth;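 optical density of the mix in the first replicate; 0 = DMSO median and -100 = no signal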
# Ecoli rRNA inh RFP: recorded beside Ecoli rRNA inh, whose call it bears; RFP signal change, %; measured here: RFP humanized mutant strains;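 first replicate; 0 = DMSO median and -100 = no signal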
# * hit, by the source's call; ? = inconclusive; . = no result given; & = joins results of further samples. This is a subset; the hit share may differ from the screen's.
SMILES,Bfl-1 A1 inh,RanGTP-Imp inh,Vif A3G,Calb FLC,Ecoli rRNA inh,Ecoli rRNA inh OD600,Ecoli rRNA inh RFP,Beta cell apopt,T cruzi repl,MLL AF4-AF9 inh
OC[C@@H]1CCCN1Cc1cn(-c2ccccc2)nc1-c1ccc2c(c1)OCO2,0.1,-3.5,.,7,13,2,-1.1,1,-8,-14
O=C(NCc1cccs1)c1cc(-c2ccccn2)nc2ccc(Br)cc12,0.8,3.0,.,31,5,5,5.1,11,-37,-4.6
COc1ccc(C(=O)Nc2ccc3c(c2)C(=O)c2ccccc2C3=O)cc1OC,-0.3,3.7,.,5,.,.,.,-2,-4,.
CCC(=O)NC(c1cc(Cl)c2ccccc2c1O)C(C)C (centres undefined),0.0,.,.,.,-3,-13,-10.0,-12,.,3.0
CCCCn1c(SCC(=O)Nc2cc(C)[nH]n2)nc2ccsc2c1=O,1.0,-7.1,8%,-6,.,.,.,-3,7,.
CC(C(=O)NC1CCCCC1)N(Cc1ccc(F)cc1)C(=O)c1snc(C(N)=O)c1N (centres undefined),0.0,-0.7,.,-16,.,.,.,5,15,3.1
Cc1c(S(=O)(=O)N2CC(C)CC(C)C2)c(=O)n(C)c(=O)n1C (centres undefined),0.6,1.2,.,-2,1,11,-0.3,-2,-7,-2.4
OCCCCNCc1ccc(OCc2ccc(Cl)cc2)cc1,-0.1,1.0,2%,6,6,-9,9.4,.,57*,13
Cc1[nH]c(C)c(S(=O)(=O)N2CCN(c3cccc(C(F)(F)F)c3)CC2)c1C(=O)N1CCCCC1,-0.4,1.4,.,5,-6,-25,0.2,.,4,12
CCN(CC)S(=O)(=O)c1ccc(C(=O)N2CCN=C2SCc2cccnc2)cc1,0.4,1.4,8%,-3,.,.,.,-2,1,.
Cc1cc(NC(=O)CN2CCCCC2)n(-c2ccccc2)n1,0.2,-0.3,11%,0,26,25,2.4,1,11,0.1
CSc1ccccc1NC(=O)COC(=O)c1ccccc1Cc1ccccc1,-1.3,-0.6,27%,-2,.,.,.,8,2,.
Clc1ccc2c(c1)C=Nc1c(NCc3ccccc3)ncnc1O2,-0.7,-1.3,-8%,-8,.,.,.,4,6,.
COC(=O)c1ccc(N2CCOCC2)c(NC(=O)c2cccnc2)c1,-0.4,0.2,.,-2,20,20,-0.3,.,?,0.4
CCN(CC)c1ccc(/C=N/NC(=O)CNC(=O)c2cccnc2)cc1,0.2,0.8,-3%,6,5,5,1.7,5,11,2.7
Cc1cc(C)c2c(CC(=O)NC(C)C)coc2c1,0.0,-3.2,9%,-15,26,15,2.9,-4,-13,-1.4
C=CCN1CN(S(=O)(=O)c2cccc(Cl)c2)c2nc3ccccc3nc21,-1.0,1.8,.,-8,-12,-44,6.6,0,19,5.8
Cc1ccccc1N1CCN(C(=O)[C@@H]2CCCN2C2=NS(=O)(=O)c3ccccc32)CC1,1.6,.,4%,.,.,.,.,-4,.,4.8
CCc1nc2ccc(C(=O)NCCc3ccc(OC)cc3)cc2nc1CC,-0.1,1.4,.,1,-13,-12,-2.2,6,5,-2.2
O=C(C1CC1)N1CCc2cc(Br)cc(S(=O)(=O)NCC3COc4ccccc4O3)c21 (centres undefined),1.1,-3.7,-1%,7,.,.,.,-1,15,.
COc1ccc(NC(=O)c2cc([N+](=O)[O-])ccc2N2CCCCC2)cc1OC,0.6,.,-3%,.,-17,-28,-3.1,7,.,11
C=CC[C@@H](CC(=O)N[C@H](CO)Cc1ccccc1)C(=O)N[C@@H](COC(=O)[C@@H](CC=C)Cc1ccc(F)cc1)Cc1ccccc1,-1.0,.,-3%,.,4,12,-1.5,60,.,-0.3
COc1ccc(C)cc1NC(=O)C12CCC(C)(C(=O)O1)C2(C)C (centres undefined),1.0,-2.7,?,3,.,.,.,0,6,.
C=CCNc1nc(Nc2ccc(Cl)cc2)nc(OC)n1,0.8,1.3,0%,4,-33,-34,-2.3,9,6,3.5
COc1ccc(CSc2nc(C)cc(C)c2C#N)cc1,-0.6,-4.3,-1%,4,1,-5,-2.6,-2,7,25*

# One compound at a time (already shown):
# `Cc1c(S(=O)(=O)N2CC(C)CC(C)C2)c(=O)n(C)c(=O)n1C` (centres undefined) is entered as Bfl-1 A1 inh: 0.6; RanGTP-Imp inh: 1.2; Vif A3G: .; Calb FLC: -2; Ecoli rRNA inh: 1; Ecoli rRNA inh OD600: 11; Ecoli rRNA inh RFP: -0.3; Beta cell apopt: -2; T cruzi repl: -7; MLL AF4-AF9 inh: -2.4
# `CCN(CC)c1ccc(/C=N/NC(=O)CNC(=O)c2cccnc2)cc1` is entered as Bfl-1 A1 inh: 0.2; RanGTP-Imp inh: 0.8; Vif A3G: -3%; Calb FLC: 6; Ecoli rRNA inh: 5; Ecoli rRNA inh OD600: 5; Ecoli rRNA inh RFP: 1.7; Beta cell apopt: 5; T cruzi repl: 11; MLL AF4-AF9 inh: 2.7

# New compounds follow
SMILES,Bfl-1 A1 inh,RanGTP-Imp inh,Vif A3G,Calb FLC,Ecoli rRNA inh,Ecoli rRNA inh OD600,Ecoli rRNA inh RFP,Beta cell apopt,T cruzi repl,MLL AF4-AF9 inh
CC(Oc1ccc2ccccc2c1)C(=O)NNC(=S)NC(=O)c1ccco1 (centres undefined),-1.1,2.1,6%,1,.,.,.,6,16,.
O=c1c2[nH]c3ccc(F)cc3c2ncn1CC1CCCO1 (centres undefined),0.2,3.2,.,-5,12,11,-1.6,0,-9,0.7
O=C(O)CCCC(=O)Nc1ccc2c(c1)oc1ccccc12,-0.1,1.9,.,-2,-27,-20,-9.1,.,13,-1.3
Cc1ccc(NC(=O)CSc2nc(=O)n(CCN(C)C)c3c2CCCC3)cc1Cl,0.6,0.3,-8%,2,-10,-10,15,.,30,-17
COc1ccc(C(=O)O)cc1S(=O)(=O)NCCc1ccccn1,1.0,4.7,.,0,7,8,11,-5,1,1.1
CCOC(=O)C1CCN(S(=O)(=O)c2cc3c4c(c2)C(C)C(=O)N4CCC3)CC1 (centres undefined),-0.7,-2.7,-3%,2,18,13,1.4,2,-16,-3.2
c1ccc(CN2CCN(c3nc4ccccc4n4cnnc34)CC2)cc1,0.4,2.0,4%,3,-15,-18,2.3,.,51,4.3
OCCN=Cc1c(O)[nH]c2ccccc12,0.2,1.4,10%,-5,4,6,-3.7,-1,-8,.
COc1ccc(CCNC(=O)Cn2c([N+](=O)[O-])cnc2C)cc1OC,-0.1,4.6,.,-7,-5,5,0.3,-3,-5,0.1
Cc1ccc(/C(O)=C2/C(=O)C(=O)N(Cc3ccco3)C2c2cccs2)cc1 (centres undefined),-1.3,8.0,9%,8,-9,-4,12,-9,-3,-5.8
CCCc1nc(-c2cc3cc(C)ccc3[nH]c2=O)no1,-1.4,1.4,20%,-7,1,3,-1.5,2,-9,-6.8
CN=C(NC1CCCCC1)c1ccc(Cl)cc1,0.0,1.2,6%,-10,.,.,.,-7,-14,.
COc1ccc(N(CC(=O)N2CCN(C)CC2)S(=O)(=O)c2cc(C)ccc2OC)cc1Cl,-0.5,-4.4,-7%,6,11,0,3.3,0,-11,0.2
Cc1cc(S(=O)(=O)N2CCCCC2)ccc1OCC(=O)N1CCOCC1,1.1,3.9,-2%,10,6,9,1.4,-2,-4,0.1
Cc1ccccc1OC(C)C(=O)NCCCN1CCOCC1 (centres undefined),0.8,3.4,.,6,19,12,3.2,-5,2,-1.1
CN(C)CCCNc1cc(C(C)(C)C)nc2c(-c3ccccc3)cnn12,-0.1,2.1,.,25,-51,-54,-13,113*,56*,?
CCCCOc1ccc(C(=O)Nc2ccc(SC(F)F)cc2)cc1OC,-1.0,2.6,.,7,0,7,-3.7,-3,44,-1.6
COc1ccc(Cc2nnc(NC(C)=O)s2)cc1,0.9,3.0,.,?,17,15,4.1,-2,2,0.4
COc1ccc(Cl)cc1NC(=O)CCc1nc(-c2ccccc2F)no1,0.5,-0.9,-1%,-4,-4,8,1.9,-10,-1,2.6
C=CCn1c(SCC(=O)Nc2c(C)nn(Cc3ccccc3)c2C)nnc1C(O)c1ccccc1 (centres undefined),0.4,-1.0,10%&3%,-6,.,.,.,0,0,.
O=C(Nc1ccccc1-c1nc2ccccc2s1)c1ccco1,0.4,3.5,-15%,6,8,6,5.4,-5,34,.
CN(C)CCCNC(=S)N(Cc1cccs1)Cc1cc2cc3c(cc2[nH]c1=O)OCCO3,0.4,2.9,-244%,-4,2,0,2.9,.,21,5.2
CC(C)N(Cc1nc(COc2ccccc2)no1)Cc1nccn1C,0.0,-0.8,-9%,-5,3,-1,-0.1,-6,-6,-9.5
CCn1c(-c2ccco2)n[nH]c1=S,-1.3,1.7,11%,0,.,.,.,1,0,.
O=C(Nc1nncs1)c1cc(S(=O)(=O)N2CCCCC2)ccc1Cl,0.4,-0.8,.,-5,-2,2,1.9,.,-1,2.8

# Part of the list above, showing only Beta cell apopt:
Structure | Beta cell apopt
CC(Oc1ccc2ccccc2c1)C(=O)NNC(=S)NC(=O)c1ccco1 (centres undefined) | 6
CSc1ccccc1NC(=O)COC(=O)c1ccccc1Cc1ccccc1 | 8

# Remaining list, next part.
SMILES,Bfl-1 A1 inh,RanGTP-Imp inh,Vif A3G,Calb FLC,Ecoli rRNA inh,Ecoli rRNA inh OD600,Ecoli rRNA inh RFP,Beta cell apopt,T cruzi repl,MLL AF4-AF9 inh
COc1cc(OC)cc(C(=O)NNC(=O)CCNC(=O)c2ccc(Br)cc2)c1,0.3,.,.,.,3,0,0.3,-2,.,-3.1
O=C(Oc1ccc(/C=N/O)cc1)c1ccccc1,-3.9,-1.6,-1%,4,.,.,.,6,-16,.
O=C(NC1CCCCC1)C(c1cccnc1)N(C(=O)CCl)c1ccc(F)cc1 (centres undefined),0.5,-3.9,.,-9,1,1,2.9,-5,6,6.8
COCCNC(=S)NC12CC3CC(CC(C3)C1)C2,2.2,0.7,-4%,-13,.,.,.,-4,-23,.
COc1ccc(OC)c(NC(=O)C2C3CCC(O3)C2C(=O)O)c1 (centres undefined),0.8,2.0,7%,-9,.,.,.,.,-12,.
Cc1ccc(S(=O)(=O)C2(C(=O)Nc3ccc4c(c3)OCO4)CC2)cc1,-0.8,-1.4,3%,1,5,12,-0.3,-3,-7,0.1
CCc1ccc(CN2C(=O)c3ccccc3C2C(=O)NC(C)CC)cc1 (centres undefined),0.5,-1.8,2%,-21,8,5,-4.2,-2,-8,1.3
COc1cccc(CNc2cccc(C(F)(F)F)c2)c1O,-0.6,2.4,15%,2,-48,-42,-1.5,-2,0,-0.2

# Screens as filed in PubChem BioAssay.
